VACV mCherry inh: inhibitors of vaccinia virus infection (mCherry reporter signal) | Vaccinia virus mCherry reporter infection, fluorescence; about a quarter of the inactives have no number | Potency, µM (doses to about 36.5 µM), without a hit: at the highest dose activity change, negative = inhibition, hits mostly inhibitors | 0.63% of 310,000 active | AID 720579; active = well fitted inhibition curve with a large enough effect; inconclusive = small, poorly fitted or top-dose-only effect; inactive = no such curve, though single readings can be large or run the other way; tested in A549 cells; note: nearly all actives have a fitted effect of over 35% in size; inactives centre near -10
Vaccinia Venus: vaccinia inhibition (Venus reporter); Vaccinia virus Venus reporter expression, fluorescence; Potency, µM (series often up to 36.5 µM), inactives show at the highest dose activity change, negative = inhibition, most hits filed as inhibitors; 0.46% of 330,000 active; active means well fitted inhibition curve with a large enough effect; inconclusive means small, poorly fitted or top-dose-only effect; inactive means no such curve, though single readings can be large or run the other way; tested in A549 cells; note: nearly all actives have a fitted effect of over 30% in size; inactives centre near -10
* hit, by the source's call; i = inactive; ? = inconclusive; . = not tested or not shown; & = joins results of further samples; [ ] = dose if it differs, or a comment. % is set by controls: 0 for no effect and ±100 for the full control effect; potency is the fitted concentration of half-maximal effect.

Every second line gives: VACV mCherry inh	Vaccinia Venus
COc1ccccc1-c1ccnc(-n2ncc(C(=O)N(C)C(C)c3nc(C)cs3)c2C2CC2)n1 (centres undefined)
→ -12%	-7%
Cc1oc(-c2cc(F)ccc2F)nc1CN1CCCN(C(=O)c2ccco2)CC1
→ -24%	-6%
Cc1cc(-c2nnc(SCC(=O)N3C(C)CCCC3C)o2)no1 (centres undefined)
→ -4%	-18%
NC(=O)N/N=C/c1cc(F)cc(F)c1
→ -13%	-14%
COc1cc(NC(=O)c2cccs2)c(C(=O)OCC(=O)NC(=O)NCc2ccccc2)cc1OC
→ .	-13%
[O-][n+]1onc2c1CCc1c-2nc(-c2ccccc2)n1OCc1ccccc1
→ .	-6%
[O-][N+]1=C(c2cccs2)CN(O)C1
→ -7%	3%
Cc1ccnn1CC(=O)N/N=C/c1ccc2c(c1)OCO2
→ -13%	-6%
COc1cccc(CC(NC(C)=O)C(=O)NC2CCN(S(=O)(=O)c3cccc4ccccc34)CC2)c1 (centres undefined)
→ -20%	-14%
Cc1c(CN2CCC(n3nccc3NC(=O)c3cccc(F)c3)CC2)cnn1C
→ -3%	3%
CCOc1ccc(CCNC(=O)COC(=O)c2ccc(C)c([N+](=O)[O-])c2)cc1OCC
→ i	-9%
Cc1cc(/C=C2\C=Cc3ccccc32)cc(C)c1N
→ 17%	-21%
Cc1ccc(S(=O)(=O)N2CCN(C(=O)CN3C(=O)NC4(CCCCC4)C3=O)CC2)c(C)c1
→ -10%	-4%
CCc1cccc(CC)c1NC(=S)NCCc1c(C)[nH]c2ccc(C)cc12
→ 10µM*	16µM*
C=CCn1c(CC(=O)Nc2cccc(OC)c2)nnc1SCC(=O)NC1CCCCC1
→ i	-6%
O=C(Nc1nncs1)C1(c2ccccc2)CCCC1
→ -2%	-4%
OCCC#Cc1ccc(N2C(c3ccsc3)=Cc3ccc(F)cc3C2c2c[nH]c3ccccc23)cc1 (centres undefined)
→ 9%	2%
COc1ccc(NC(=O)c2cc(-c3ccncc3)nc3ccccc23)c(OC)c1
→ 6%	21%
Cc1cc(C)c(CN2CCC3(CCC(CNC(=O)c4ccn(C)n4)O3)CC2)cc1C (centres undefined)
→ i	0%
CCOc1cc(NC(=O)c2cccs2)c(OCC)cc1NC(=O)CCC(=O)NCCN1CCOCC1
→ -22%	-6%
COc1ccc(-c2sc3cc(OC)c(OC)cc3c2C#CCCO)cc1
→ -24%	?
CCN1C(=O)/C(=C\N2CCN(c3cccc(Cl)c3)CC2)SC1=S
→ .	-2%
CCOc1ccc(NC(=O)c2cc(S(=O)(=O)NC3CCCCCC3)ccc2F)cc1
→ -27%	?
Cc1ccc(Cl)cc1N1CCN(C(=O)c2cc3c(=O)[nH]c4ccccc4c3n2C)CC1
→ ?	-14%
COc1ccc(-c2cc(C(=O)NCC3CCCO3)c3cc(C)ccc3n2)cc1 (centres undefined)
→ -12%	-8%
O=c1[nH]c2ccccc2c(=O)n1-c1ccc(Cl)c(Cl)c1
→ -10%	-8%
CCN1CCN(C(c2cccc(OC)c2)c2c(O)cc(C)n(Cc3ccco3)c2=O)CC1 (centres undefined)
→ -8%	0%
CC(C)C[C@H]1CN=C(Nc2ccccc2)N1CC1CCC(C(C)(C)C)CC1 (some centres undefined)
→ 28µM*	?
Nc1nc(Cl)cc(Sc2ccc(F)cc2)n1
→ .	3%
Cc1ccc(N2CCN(C(=O)c3cn(C)c4ccc(S(=O)(=O)N(C)C5CCCCC5)cc4c3=O)CC2C)cc1 (centres undefined)
→ -10%	-9%

For convenience, 7 of the compounds above.
Every second line gives: VACV mCherry inh	Vaccinia Venus
Cc1ccc(Cl)cc1N1CCN(C(=O)c2cc3c(=O)[nH]c4ccccc4c3n2C)CC1
→ ?	-14%
COc1ccc(-c2cc(C(=O)NCC3CCCO3)c3cc(C)ccc3n2)cc1 (centres undefined)
→ -12%	-8%
O=c1[nH]c2ccccc2c(=O)n1-c1ccc(Cl)c(Cl)c1
→ -10%	-8%
CCN1CCN(C(c2cccc(OC)c2)c2c(O)cc(C)n(Cc3ccco3)c2=O)CC1 (centres undefined)
→ -8%	0%
CC(C)C[C@H]1CN=C(Nc2ccccc2)N1CC1CCC(C(C)(C)C)CC1 (some centres undefined)
→ 28µM*	?
Nc1nc(Cl)cc(Sc2ccc(F)cc2)n1
→ .	3%
Cc1ccc(N2CCN(C(=O)c3cn(C)c4ccc(S(=O)(=O)N(C)C5CCCCC5)cc4c3=O)CC2C)cc1 (centres undefined)
→ -10%	-9%

(listing goes on)
Every second line gives: VACV mCherry inh	Vaccinia Venus
O=C(Nc1ccccc1Oc1ccccc1)c1ccc(Br)o1
→ -7%[1.46 µM]	-14%
CCOC(=O)Cn1nnnc1CN(CCc1ccccc1)Cc1cc2cc(CC)ccc2[nH]c1=O
→ -13%	-15%
O=C(COc1ccc([N+](=O)[O-])cc1)Nc1cc(S(=O)(=O)N2CCCCC2)ccc1N1CCCCC1
→ i	-6%
O=C(Nc1ccccc1)[C@@H]1[C@@H]2C(=O)N(c3ccc(F)cc3)C(=O)[C@@H]2[C@H]2C=CC=NN21
→ -5%	3%
Brc1ccc2nc(C3CCCCC3)c(CC3CCCCC3)n2c1
→ i	-3%
Cc1nn(C)c(C)c1CCNC(=O)Nc1cccc(Cl)c1C
→ i	-12%
O=C(NCC(c1cccs1)N1CCOCC1)c1cnc(Cl)c(Cl)c1 (centres undefined)
→ -3%	-13%
Cc1cc(N2C(=O)CC(N3CCN(c4ccc(C(=O)c5cccs5)cc4)CC3)C2=O)no1 (centres undefined)
→ .	-22%
CC(C)(C)c1ccc(C(=O)NCC(c2cccs2)S(=O)(=O)c2cccs2)cc1 (centres undefined)
→ -21%	-26%
CC(=O)c1cc(C#N)c(N2CCOCC2)nc1C
→ -3%	-2%
CN(CC(CC(=O)O)c1ccccc1)S(=O)(=O)c1ccc(Br)cc1 (centres undefined)
→ i	-5%
COC(=O)CC1C2(C)CC34OC5(C)O[C@@]6(C7/C(=C(/OC)C(C)C)C(=O)OC(c8ccoc8)[C@@]7(C)C(OC(=O)C(C)C)C(OC)[C@]6(O5)[C@@]13C)C(OC)[C@]4(OC)C2OC(C)=O (some centres undefined)
→ -28%	-28%
CN1C(=O)c2cccc3c(S(=O)(=O)Nc4ccccc4F)ccc1c23
→ -11%	1%
NC(=O)/C(=C\c1ccco1)NC(=O)c1ccc(Br)o1
→ i	-3%
COCc1cc(C)nc(OCC(=O)N/N=C/c2ccc(-c3cc([N+](=O)[O-])ccc3Cl)o2)c1C#N
→ -8%	1%
Cc1nn(-c2ccccc2)c2[nH]c(=O)c(CNCC3CCCO3)cc12 (centres undefined)
→ i	-4%
O=C(O)c1cc(-c2ccco2)nc2ccc(Br)cc12
→ -11%	0%&5%
N=C1c2ccccc2CN1c1cccc([N+](=O)[O-])c1
→ -16%	-11%
Cc1nc(N2C(=O)c3oc4ccccc4c(=O)c3C2c2cccc(OCCC(C)C)c2)sc1C (centres undefined)
→ -11%	-7%
CCN(CC)C(=O)[C@H]1C[C@H](CC(=O)NC(C)(C)C)C(=O)N2CCc3c([nH]c4cc(-c5ccco5)ccc34)[C@]12C
→ -15%	?
O=C(O)c1ccc(Cl)c(NCc2cccnc2)c1
→ i	-13%
CC(C)NC(=O)c1ccc(-n2c(-c3ccccc3)cc3c2CCCCC3)cc1
→ i	-4%
N#CCCN(Cc1ccccc1)C(C(=O)NC1CCCCC1)C1CC1 (centres undefined)
→ i	-6%
O=C(COC(=O)c1c(F)cccc1F)NCCNC(=O)COC(=O)c1c(F)cccc1F
→ 1%	3%
CCCNC(=S)N(Cc1cc2cc(C)ccc2n2nnnc12)CC(C)(C)CN(C)C
→ i	-3%
O=C(N/N=C/c1cc2c3c(c1O)CCCN3CCC2)c1ccccc1O
→ ?	?
Cn1cc(SCC(=O)NCC2CCCO2)c2ccccc21 (centres undefined)
→ -26%	-4%
COc1ccccc1/C=N/NC1=NCCCCC1
→ -15%	0%
COc1ccccc1NC(=S)NCCc1ccc(OC)c(OC)c1
→ i	-16%
O=C(NC1CCCCC1)C1CCN(C(=O)c2ccccc2Cl)CC1
→ i	-5%
Cc1cccc(NC(=O)C2CCN(S(=O)(=O)c3cccs3)CC2)c1
→ -11%	-14%
CCC1(c2ccccc2)NC(=O)N(CC(=O)Nc2cc(S(=O)(=O)N3CCCCC3)ccc2OC(C)C)C1=O (centres undefined)
→ -23%	-17%
CCn1cc(CNC(=O)c2ccc3nc(Cc4ccccc4F)oc3c2)cn1
→ -14%	-14%
C/C=C(\C)NNC(=O)Cc1ccc(OC)cc1
→ -8%	-15%
CN(C)S(=O)(=O)N1CCN(C(=O)N2CCOCC2)CC1
→ i	-9%
CCN1CCN(c2ccc(S(=O)(=O)N3CCCCC3)cc2NC(=O)c2cccc(C(F)(F)F)c2)CC1
→ -8%	-23%
COc1cc(C2CC(c3cccs3)=NN2C(=O)CCl)ccc1OC(F)F (centres undefined)
→ 0%	-6%
Cn1c(Nc2cccc(Cl)c2)nc2ccccc21
→ ?	-21%
C[C@H](CO)N1C[C@H](C)[C@@H](CN(C)Cc2ccc(C(=O)O)cc2)Oc2c(NS(=O)(=O)c3ccccc3)cccc2C1=O
→ i	-8%
NNC(=O)c1ccc(CSc2n[nH]c(=O)[nH]c2=O)cc1
→ i	12%
NC(COCc1ccccc1)c1csc(Nc2cc(Oc3ccccc3)ncn2)n1 (centres undefined)
→ ?	-20%
CCOc1ncccc1C(=O)OCC(=O)N1CCC(C)CC1
→ -12%	-12%
Nc1cccc2c1C(=O)N(C(=O)c1ccc(Cl)c(S(=O)(=O)N3CCCCCC3)c1)C2=O
→ -6%	0%
O=C(c1ccc(Cl)c(S(=O)(=O)N2CCOCC2)c1)N1CCOCC1
→ -8%	-11%
C/C(=N\NC(=O)c1cc(O)cc(O)c1)c1ccc(NC(=O)Cc2ccccc2)cc1
→ 0%	-17%
COc1ccc(OC)c(NC(=O)C(C)Oc2ccc(Br)cc2)c1 (centres undefined)
→ -13%	2%
CN(C)/C=C/C(=O)c1ccc(S(=O)c2ccccc2)cc1 (centres undefined)
→ -4%	-18%
COCC(C)n1c(C)cc(C(=O)COC(=O)c2cc(=O)[nH]c3ccccc23)c1C (centres undefined)
→ i	-16%
COc1ccc2c(c1OC)CN1CCc3cc4c(cc3[C@@H]1[C@@H]2O)OCO4
→ ?	-3%
COc1ccc(NC(=O)Nc2nc3c(s2)CCCC3)cc1
→ -24%	?
CN(C)c1cccc2cccc(N(C)C)c12
→ -2%	-9%
CCOc1ccc(NC(=O)CCn2c(=O)[nH]c3ccsc3c2=O)cc1
→ -9%	-8%
CCOC(=O)C(c1ccccc1)C(Nc1ccc(Cl)c(Cl)c1)c1ccccn1 (centres undefined)
→ -19%	5%
Cc1ccc(C)c(N2CCN(C(=O)c3ccc4c(c3)c(C)c(C)n4C)CC2)c1
→ ?	-12%&-11%
CCn1cc(C(=O)O)c(=O)c2cc(F)c(N3CCNCC3)cc21
→ i	-11%
CC(=O)c1ccc(N2CCCCCC2)c(F)c1
→ .	-25%
O=c1cc[nH]c2c(Cl)cccc12
→ -15%	-9%
CCCNC(=O)CN1C(=O)NC(CCc2ccccc2)C1=O (centres undefined)
→ -11%	-1%
Cc1nc(NC(=O)c2ccc(OCC(C)C)cc2)sc1Cc1ccc2c(c1)OCO2
→ i	-28%
CC1(C(=O)NS(=O)(=O)C2CC2)CCCN(C(=O)c2ccccc2OC(F)(F)F)C1 (centres undefined)
→ 30%	8%

(list continues)
Every second line gives: VACV mCherry inh	Vaccinia Venus
Nc1c(Cl)cc(-c2csc(NCCc3nc4cc(Cl)c(Cl)cc4n3CCCO)n2)cc1Cl
→ -8%	-11%
CC(C)C(N)c1csc(NC(=O)Nc2cccc(Cl)c2)n1 (centres undefined)
→ 2%	-23%
Cc1cc(C)c2oc(-c3cccc(NC(=O)COc4ccccc4Cl)c3C)nc2c1
→ -28%	-26%
C=CCn1c(CCNC(=O)C(C)(C)C)nc2ccccc21
→ -7%	-6%
Cc1c(NC(=O)c2cc3nc(-c4ccc(Br)cc4)cc(C(F)(F)F)n3n2)c(=O)n(-c2ccccc2)n1C
→ -20%	-13%
CCN(CC)c1ccc(/C=N/Nc2nc(C)cc(=O)[nH]2)c(O)c1
→ 0.89µM*	?
Cc1onc(-c2ccccc2)c1C(=O)NCCSCc1ccco1
→ i	-7%
O=C(Nc1nc2cc(Cl)ccc2s1)C1CCCN(S(=O)(=O)c2cccc3cccnc23)C1 (centres undefined)
→ -11%	?
Cc1cc(NS(=O)(=O)c2ccc(NC(=O)CCCOc3ccccc3C)cc2)nc(C)n1
→ -2%	0%
COc1ccc(C(=O)Nc2cc(C(F)(F)F)ccc2N2CCN(c3ccccc3)CC2)cc1OC
→ -8%	-10%
Cn1cncc1C#Cc1c(-c2ccsc2)sc2ccccc12
→ ?	-24%

Another view of three compounds above:
Nc1c(Cl)cc(-c2csc(NCCc3nc4cc(Cl)c(Cl)cc4n3CCCO)n2)cc1Cl
  VACV mCherry inh: -8%; Vaccinia Venus: -11%

Cc1c(NC(=O)c2cc3nc(-c4ccc(Br)cc4)cc(C(F)(F)F)n3n2)c(=O)n(-c2ccccc2)n1C
  VACV mCherry inh: -20%; Vaccinia Venus: -13%

C=CCn1c(CCNC(=O)C(C)(C)C)nc2ccccc21
  VACV mCherry inh: -7%; Vaccinia Venus: -6%
